# Compound activity: PubChem BioAssay, National Center for Advancing Translational Sciences (NCATS)
# Vaccinia Venus – qHTS for Stage-Specific Inhibitors of Vaccinia Orthopoxvirus: Venus Reporter Primary qHTS; Vaccinia virus Venus reporter expression, fluorescence; Potency, µM (doses to about 36.5 µM), for inactives: at the highest dose activity change, negative = inhibition, hits mostly inhibitors; 330,000 tested, 0.46% active; active means well fitted inhibition curve with a large enough effect; inconclusive means small, poorly fitted or top-dose-only effect; inactive means no such curve, though single readings can be large or run the other way; tested in A549 cells; further: nearly all actives have a fitted effect of over 30% in size; inactives centre near -10
# Vaccinia mCherry – qHTS for Stage-Specific Inhibitors of Vaccinia Orthopoxvirus: mCherry Reporter Primary qHTS | 310,000 tested, 0.63% active | Potency, µM (titrated, usually from 36.5 µM), inactives show top-dose activity change, negative = inhibition, actives largely listed as inhibitors | Vaccinia virus mCherry reporter infection, fluorescence; about a quarter of the inactives have no number; active = well fitted inhibition curve with a large enough effect; inconclusive = small, poorly fitted or top-dose-only effect; inactive = no such curve, though single readings can be large or run the other way; tested in A549 cells; further: nearly all actives have a fitted effect of over 35% in size; inactives centre near -10
# * = called active by the depositor; i = inactive; ? = inconclusive; . = no result given; & = joins results of further samples; [ ] = dose if it differs, or a comment. On the % scale 0 is the no-effect control and ±100 the full control effect; potency means the concentration at half of the fitted maximal effect.
# Under each structure – Vaccinia Venus | Vaccinia mCherry
> CCC(C)NC(=O)Cn1cnc2sc(C)c(S(=O)(=O)N3CCN(c4ncccn4)CC3)c2c1=O (centres undefined)
→ -8% | -5%
> CCOC(=O)c1sc2nc(CC(=O)OC)nc(NCCN(CC)CC)c2c1C
→ -26% | -19%
> COc1ccc(C)cc1NC(=O)c1cn(C)c(=O)c2cc(OC)c(OC)cc12
→ -4% | -3%
> CC(Sc1nnc(C2CC2)n1-c1ccccc1)C(=O)N1CCNC1=O (centres undefined)
→ -10% | -9%
> Cc1oc(-c2cccc(Cl)c2)nc1Cn1c(SCc2ccc(F)cc2)nc2cccnc21
→ -17% | -10%
> Cc1cccc(C(=O)Nc2ccccc2C(=O)Nc2ccc(C(=O)O)cc2)c1
→ -7% | -1%
> COc1cccc(NC(=S)N(Cc2ccco2)C(C)c2ccco2)c1 (centres undefined)
→ -15% | i
> COc1ccc(C2Nc3ccccc3C(=O)N2c2ccccc2)cc1CSc1ccccn1 (centres undefined)
→ -9% | -14%
> CC1=CC(=O)c2ccccc2C1=O
→ -11%&-4%&14% | -13%&-12%
> Cc1ccc(C2=NS(=O)(=O)N(C)C(C(=O)NCc3cccs3)=C2)cc1
→ 1% | i

# The list goes on:
# Under each structure – Vaccinia Venus | Vaccinia mCherry
> COc1ccc(-c2noc(CSc3nc4sc(C)c(C)c4c(=O)n3-c3ccccc3)n2)cc1
→ -8% | i
> CCN(CC)CCCn1c2c(c(SCC(=O)Nc3ccc4c(c3)OCCO4)nc1=O)CCC2
→ -10% | i
> COc1ccc2ccccc2c1/C=N/N1C(=O)CSC1=S
→ 30%[activator] | i
> O=C(CC(c1cccs1)N1Cc2ccccc2C1=O)Nc1ccc(F)cc1 (centres undefined)
→ -12% | i
> COCc1ccc(CN2CCCC(CCC(=O)NCc3ccc(C)o3)C2)o1 (centres undefined)
→ -12% | -13%
> O=C(COC(=O)[C@@H]1CCCN1S(=O)(=O)c1ccc(Cl)cc1)NC1CC1
→ -9% | -10%
> COCc1ccc(C(=O)N2CCCC(N(C)CCc3ccccc3)C2)s1 (centres undefined)
→ -8% | -1%
> Cc1ccc(/C=N/NC(=O)c2cccnc2)s1
→ -3% | i
> COCCn1cnnc1SCC(=O)Nc1cccc(S(=O)(=O)N2CCCCC2)c1
→ -4% | -10%
> Cc1ccc(S(=O)(=O)N2[C@@H](c3ccccc3F)C(C(=O)O)=CC[C@H]2c2ccc(Cl)c(Cl)c2)cc1
→ -14% | -1%

# Additional results:
# Under each structure – Vaccinia Venus | Vaccinia mCherry
> CN(C(=O)c1ccc(NC(=O)Cc2ccc([N+](=O)[O-])cc2)cc1)C1CCCC1
→ -26% | -20%
> CCCc1ccc2oc(C(=O)N3CCN(CCC(N)=O)CC3)c(C)c2c1
→ 1% | -6%
> O=C1CN(C(=O)CC2c3ccccc3-c3ccccc32)CC(=O)N1
→ -13% | -18%
> COc1ccc(-c2nc(=S)c3ccc4ccccc4c3[nH]2)cc1
→ 8% | 11%
> CCCCCCCCNC(=O)/C(C#N)=C/c1ccc(SC)cc1
→ 12% | -13%
> Cc1cc(C)n(-c2nc(-c3cccc(Cl)c3)cs2)n1
→ -5% | -14%
> CCOc1ccc(N(CC(=O)NC2CCCC2)C(=O)Cn2nnc(-c3ccc(C)o3)n2)cc1
→ -10% | i
> O=C(c1ccc(NC2=NC3CS(=O)(=O)CC3S2)cc1)N1CCN(c2ccccc2)CC1 (centres undefined)
→ 4% | -8%
> Cc1ccc(OCCNC(=O)C2CC(=O)N(Cc3ccccc3)C2)cc1 (centres undefined)
→ -19% | -12%
> Cc1ccc(S(=O)(=O)ON2C(=O)c3ccccc3C2=O)c(C)c1
→ 0% | -9%

# (more compounds)
# Under each structure – Vaccinia Venus | Vaccinia mCherry
> CC(NC(=O)c1ccccc1F)C12CC3CC(CC(C3)C1)C2 (centres undefined)
→ -14% | -1%
> CCOc1ccc(S(=O)(=O)NCC2CCCO2)cc1NC(=O)c1ccccc1F (centres undefined)
→ 0% | -10%
> COc1cccc(NC(=O)C2CCN(S(=O)(=O)c3cc(-c4noc(C)n4)ccc3C)CC2)c1
→ ? | ?
> COc1cc([C@H]2OC[C@H]3[C@@H]2CO[C@H]3c2ccc(O)c(OC)c2)ccc1O
→ -16% | -4%
> CCC(C)N(C(=O)COC(=O)c1ccc(=O)n(Cc2ccccc2)n1)C1CCS(=O)(=O)C1 (centres undefined)
→ 2% | -13%
> Cc1ccccc1NC(=O)C(=O)NCC(c1ccc2c(c1)OCO2)N1CCN(c2ccccc2)CC1 (centres undefined)
→ -12% | i
> Nc1nonc1C(=O)NCCNCc1ccccc1
→ -5% | .
> COc1ccc(CN2C[C@@H](CO)O[C@@H](n3cnc4c(NCCO)ncnc43)C2)cc1
→ -6% | i
> COC(=O)[C@]12CCCCC=C1N(Cc1ccc3c(c1)OCO3)C(=O)[C@H](CC(=O)NCC1CCCCC1)C2
→ -22% | -15%
> O=C(N/N=C/c1ccc(O)cc1O)C(=O)N/N=C/c1ccc(O)cc1O
→ -6% | -19%

# The list continues:
# Under each structure – Vaccinia Venus | Vaccinia mCherry
> CCC(=NCCCn1ccnc1)c1c(O)n(-c2ccc(OC)cc2)c(=O)[nH]c1=O
→ 1% | -10%
> CC(C)Oc1cccc(C(=O)N/N=C/c2coc3ccccc3c2=O)c1
→ -7% | -9%
> COc1ccccc1C(=O)Oc1ccccc1C(=O)Nc1ccccc1
→ -25% | -14%
> O=C(CC1C(=O)NCCN1Cc1cccc(C(F)(F)F)c1)NCCCOc1cccnc1 (centres undefined)
→ -6% | -4%
> CCNCC(O)COCC(O)CNCC (centres undefined)
→ -4% | -7%
> O=c1[nH]c2cc(Br)cnc2nc1/C=C(\O)c1ccc(F)cc1
→ 10% | -8%
> O=C(/C=C/c1cccc([N+](=O)[O-])c1)N1CCOCC1
→ 4% | -8%
> COc1cccc(CNc2nc3cc(-c4cnn(Cc5ccccc5)c4)sc3c(=O)n2C)c1
→ ? | -4%
> NC(=O)CC(NC(=O)Cc1cccc2ccccc12)c1ccc(N2CCC(Cc3ccccc3)CC2)c([N+](=O)[O-])c1 (centres undefined)
→ -16% | -16%
> COc1ccc(/C(C)=N/NC(=O)Cn2nc([N+](=O)[O-])cc2C)cc1
→ -6% | i

# (list continues)
# Under each structure – Vaccinia Venus | Vaccinia mCherry
> COc1ccc(NC(=O)N(CCN2CCCC2)Cc2cc3cc(OC)c(OC)cc3[nH]c2=O)cc1
→ -10% | .
> Cc1ccc(S(=O)(=O)N2CCN(C)CC2)c2nsnc12
→ -6% | -20%
> O=S(=O)(CCN1CCN(C(c2ccccc2)c2ccccc2)CC1)C(F)(F)F
→ -23% | -28%
> Cc1ccc(CNCc2ccc3c(c2)n(C)c(=O)n3C)cc1
→ -17% | -19%
> CC(C)=CCC[C@](C)(OC1OC(COC2OCC(O)C(O)C2O)C(O)C(O)C1O)C1CC[C@]2(C)C1C(O)CC1[C@@]3(C)CCC(O[C@@H]4O[C@H](CO)C(O)C(O)C4O[C@@H]4OC(CO)C(O)C(O)C4O)C(C)(C)C3CC[C@]12C (some centres undefined)
→ 3% | i
> O=C(Cn1c2ccc(F)cc2c2nc3n(c(=O)c21)CCS3)NC1CCCC1
→ 14% | 10%
> COc1ccc(CNC(=O)/C=C/c2ccc(OCCCF)cc2)cc1OC
→ ? | .
> Cc1ccc(NC(=O)CSc2nccn2Cc2ccco2)cc1Cl
→ -8% | i
> Cc1cc(C)nc(N(C#N)Cc2ccccc2Cl)n1
→ -14% | -13%
> CC(O)(c1cccc(F)c1)c1nc(-c2ccncc2)cs1 (centres undefined)
→ -5% | ?

# Whole records from above:
# O=C(Cn1c2ccc(F)cc2c2nc3n(c(=O)c21)CCS3)NC1CCCC1 in the list: Vaccinia Venus: 14%; Vaccinia mCherry: 10%
# Cc1ccc(NC(=O)CSc2nccn2Cc2ccco2)cc1Cl in the list: Vaccinia Venus: -8%; Vaccinia mCherry: i

# Carrying on:
# Under each structure – Vaccinia Venus | Vaccinia mCherry
> CC(=O)Nc1ccc(S(=O)(=O)N2CCC(C(=O)O)CC2)cc1
→ -1% | i
> Cc1cc2nnc(SCC(=O)NCC(c3ccccc3)N(C)C)n2c2ccccc12 (centres undefined)
→ -15% | -10%
> Cc1cnc(NC(=O)Cc2ccccc2F)s1
→ -12% | -2%
> Cc1noc(C)c1C(=O)N(CC(=O)Nc1ccccc1Br)Cc1ccco1
→ -10% | i
> COc1cc(C(=O)N(Cc2ccc(C)o2)C2CCS(=O)(=O)C2)cc(OC)c1OC (centres undefined)
→ -2% | -15%
> Cc1cc(C)nc(SCCc2ccncc2)n1
→ 17% | -8%
> COc1ccc(C=NNC(=O)NN=Cc2ccc(OC)c(OC)c2)cc1OC
→ -5% | i
> CCCCCCn1c(NCC)nc2c1c(=O)n(C)c(=O)n2C
→ ? | .
> CC(=NNC(=S)SCc1ccccc1)c1ccccn1
→ ? | 10µM*
> O=C(NCC(=O)N(Cc1ccco1)C(C(=O)NC1CCCC1)c1cccnc1)c1ccco1 (centres undefined)
→ -4% | -14%

# Additional results:
# Under each structure – Vaccinia Venus | Vaccinia mCherry
> COc1ccc(CC(N)c2csc(NC(=O)Nc3ccc(OC)cc3)n2)cc1 (centres undefined)
→ 0% | 6%
> CCCN(CC1CC1)C(=S)Nc1ccc(Oc2ccccc2)cc1
→ -23% | -10%
> O=C(COC(=O)c1ccc(OC(F)F)cc1)NCC1CCCO1 (centres undefined)
→ -9% | -12%
> CCc1noc(C)c1C(=O)N1CCN(S(=O)(=O)c2ccc(C(C)=O)cc2)CC1
→ -8% | -13%
> Cc1ccc(NC(=O)/C(=C\c2cccs2)NC(=O)c2ccccc2)cc1
→ 0% | -10%
> Clc1ccc2[nH]cc(-c3nnnn3-c3ccc4ccccc4c3)c2c1
→ -28% | -7%
> CCCN(CC(=O)Nc1ccccc1C)C(=O)c1ccc(C)c(S(=O)(=O)N2CCCCC2)c1
→ -26% | -27%
> O=CNc1cc(-c2ccc(C(=O)N3CCOCC3)cc2)cn2c(-c3ccc(F)cc3)cnc12
→ ? | -30%
> Cc1ccc(Nc2cc(C)nc3ccc(C)cc23)cc1
→ ? | ?
> COc1cccc(NC(=O)Cn2c(=O)n(Cc3nc(-c4ccccc4)no3)c(=O)c3ccccc32)c1
→ -7% | -15%

# Next structures.
# Under each structure – Vaccinia Venus | Vaccinia mCherry
> COC(=O)COc1ccc2c(c1)O/C(=C\c1ccco1)C2=O
→ 8% | -11%
> O=S(=O)(c1ccc2nc(Nc3ccc(Br)cc3F)ccc2c1)N1CCCCC1
→ -7% | -20%
> CCN(CC)C(=O)Cn1c(SCC(=O)Nc2ccc(C)c(C)c2)nc2ccccc21
→ -8% | -19%
> Cc1cnc(-c2nc3ccccc3n2C(C)C(=O)Nc2c(C)cccc2C)cn1 (centres undefined)
→ -16% | -1%
> CC(C)C(=O)Nc1nnc(SCC(=O)N2C(C)CCCC2C)s1 (centres undefined)
→ -9% | i
> O=C1/C(=C/c2cccc(F)c2)CSc2sccc21
→ -13% | .
> CC(=O)c1c(C)[nH]c(-c2ccccc2)nc1=S
→ 4%[7.34 µM] | i[7.34 µM]
> Cc1cc(=O)oc2c3c(cc(OCC(=O)NCCCn4ccnc4)c12)OC(C)(C)CC3
→ -5% | 14%
> CN1N=C(C(=O)NC2CCCc3c2cnn3-c2ccc(F)cc2F)CCC1=O (centres undefined)
→ -13% | -10%
> COc1cc(C(=O)N2Cc3cc4ccccc4nc3C2C)cc(OC)c1OC (centres undefined)
→ -6% | -8%

# Further entries
# Under each structure – Vaccinia Venus | Vaccinia mCherry
> Cc1cc(/C=C(/C#N)c2nc3ccccc3[nH]2)c(C)n1-c1ccccc1C(=O)O
→ 14% | -9%
> Cc1cc(=S)[nH]c(=S)[nH]1
→ -6% | -19%
> O=c1c2sc3ccccc3c2n(Cc2ccccc2Cl)c(=O)n1Cc1ccccc1
→ -12% | -5%
> COc1ccc(OC)c(NC(=O)C2C3CCC(C3=C(C)C)C2C(=O)O)c1 (centres undefined)
→ 11% | -4%
> Cc1cc2nc(-c3ccc(Cl)cc3)c(CC(C)(C)C)n2c(C)c1Br
→ 3% | 2%
> CC(=O)/C(=C\Nc1ccc(OCc2ccccc2)cc1)c1ccccc1
→ -4% | -22%
> CCc1nc2ccc(C(=O)NCCc3c[nH]c4ccccc34)cn2c1N(C)Cc1nccn1C
→ -15% | 29%
> Cc1cccc(NC(=O)CSc2nncn2-c2ccccn2)c1
→ -6% | -11%
> O=C1CCN(CCc2ccccc2)CCN1CCSc1ccccc1
→ -21%&-9% | -13%
> CCOc1ccc(S(=O)(=O)N2Cc3ccccc3CC2C(=O)Nc2ccc(NC(C)=O)cc2)cc1 (centres undefined)
→ -10% | 6%

# Later entries
# Under each structure – Vaccinia Venus | Vaccinia mCherry
> Cc1cc(C(C)(C)C)cc(CN2CCN(S(=O)(=O)c3cccs3)CC2)c1O
→ -28% | -14%
> O=C(N/N=C\c1ccccc1)c1cccc(C(=O)N/N=C\c2ccccc2)n1
→ -10% | -6%
> Oc1ccc(-c2ccccc2)cc1CN1CCCCCC1
→ -15% | -15%
> O=C(N/N=C/c1ccoc1)c1cc(O)cc(O)c1
→ 12% | -2%
> COc1ccc(NC(=O)c2c(C)oc3ccc(O)c(CN4CCCC(C)C4)c23)cc1 (centres undefined)
→ -11% | -23%
> Cc1ncc2c(c1CNS(=O)(=O)N(C)C)CCN(C(=O)c1ccccc1F)C2
→ -8% | -17%
> CSCCC(NC(=O)c1ccccc1Cl)C(=O)NCC(c1cccs1)N(C)C (centres undefined)
→ -5% | -17%
> COc1ccc(NC2=CC(=O)CC(c3ccccc3)C2)cc1 (centres undefined)
→ -4% | -4%
